Sfp inh: inhibitors of Bacillus subtilis Sfp phosphopantetheinyl transferase; Potency, µM, without a hit: max response, negative = inhibition, most hits filed as inhibitors; Biochemical Sfp PPTase activity, qHTS; 310,000 tested, 3.5% active; active = well fitted inhibition curve with a large enough effect; inconclusive = small, poorly fitted or top-dose-only effect, or another doubt; inactive = no such curve, though single readings can be large or run the other way;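 note: the enzyme is Sfp with the accession as filed and its product quenches rhodamine fluorescence; potency is the fitted concentration of half-maximal effect; 0% = enzyme reaction without inhibitor and -100% = no enzyme wells; top concentration of the series not given in the record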
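Step 1, compound plus 15 nM Sfp-PPTase, 15 min, room temperature. Step 2, add rhodamine-CoA (5 uM) and BHQ-2-YbbR (12.5 uM). Step 3, read 525/598 nm fluorescence at 0 and 30 min.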
ClpP mod: qHTS Assay for Activators of ClpP; ATP-dependent Clp protease proteolytic subunit (Bacillus subtilis (strain 168)), P80244; purified B. subtilis ClpP, FRET peptide cleavage, 20 min; Potency, µM (top dose mostly 57.5 µM), inactives show at the highest dose activity change, negative = active; 340,000 tested, 1.9% active; AID 651965, 2013; active = well fitted falling curve with a large enough effect; inconclusive = small, poorly fitted or top-dose-only effect; inactive = no such curve, though single readings can be large or run the other way; note: potency is the fitted concentration of half-maximal effect; the source files actives as falling curves though it sought activators and does not explain the sign; nearly all actives have a fitted effect of over 65% in size; many hits overshoot -100%
Target sequence (P80244 whole entry, looked up): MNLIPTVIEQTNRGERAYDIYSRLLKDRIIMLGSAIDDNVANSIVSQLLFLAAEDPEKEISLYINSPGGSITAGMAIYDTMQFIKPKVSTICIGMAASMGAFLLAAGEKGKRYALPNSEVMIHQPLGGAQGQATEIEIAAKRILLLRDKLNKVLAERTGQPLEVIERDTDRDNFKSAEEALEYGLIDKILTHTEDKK
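ClpP 10 microg/mL final, pH 8 Tris/KCl buffer with BSA, glycerol, Tween-20; compound pinned in; FRET-FV substrate; RT 20 min; Ex320/Em430; ΔFRET vs ADEP 5.8 microM, DMSO, no enzyme.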
gsp antagonist: gsp mutant antagonism | gsp-mutant cells, cAMP HTRF, 30 min; control for the full effect not named in the record | Potency, µM (series often up to 76.9 µM), for inactives: at the top dose activity change, negative = inhibition, actives largely listed as inhibitors | 340,000 tested, 0.4% active | AID 624288; active = falling curve of any shape with a large fitted effect; inconclusive = falling curve, mostly with a smaller effect; inactive = flat or rising curve; cell line not stated here;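 note: intracellular cAMP measured with PDE inhibitor Ro 20-1724 present during compound exposure; potency is the fitted concentration of half-maximal effect; % is set by controls: 0 for no effect and ±100 for the full control effect; nearly all actives have a fitted effect of over 65% in size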
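Measurement of cellular cAMP by homogeneous time-resolved fluorescence following a 30 min compound exposure at 37C. The PDE inhibitor […] was present throughout; the assay buffer was DPBS with 0.05% BSA and 0.005% Tween 20.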
Menin MLL FP FL: displaces fluorescein MLL peptide from human menin | Fluorescence polarization, fluorescein-MLL peptide displacement from menin | 290,000 tested, under 10 active | FP activity change, % at 61.4 µM; inconclusive = falling polarisation curve, or a change in total fluorescence; inactive = total fluorescence flat and polarisation flat or rising; no compound was filed as active; the % refers to the polarisation; negative = inhibition;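 note: % of control where 0% means no effect; inhibitors lower the polarisation; unlabelled MLL peptide was the positive control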
TRPV1 PAM: potentiators of human vanilloid receptor 1 (TRPV1); 320,000 tested, 0.02% active; TRPV1-expressing cells, Fluo-8 calcium influx, capsaicin EC20 potentiation; host cell line not named in the record; control for the full effect not named in the record; AID 540277; Q8NER1; potentiation, % at 8.33 µM; active means potentiation above 80%; inconclusive means 30% to 80%; inactive means below 30%; note: 0% is about no effect
Target sequence (Q8NER1 whole entry, looked up): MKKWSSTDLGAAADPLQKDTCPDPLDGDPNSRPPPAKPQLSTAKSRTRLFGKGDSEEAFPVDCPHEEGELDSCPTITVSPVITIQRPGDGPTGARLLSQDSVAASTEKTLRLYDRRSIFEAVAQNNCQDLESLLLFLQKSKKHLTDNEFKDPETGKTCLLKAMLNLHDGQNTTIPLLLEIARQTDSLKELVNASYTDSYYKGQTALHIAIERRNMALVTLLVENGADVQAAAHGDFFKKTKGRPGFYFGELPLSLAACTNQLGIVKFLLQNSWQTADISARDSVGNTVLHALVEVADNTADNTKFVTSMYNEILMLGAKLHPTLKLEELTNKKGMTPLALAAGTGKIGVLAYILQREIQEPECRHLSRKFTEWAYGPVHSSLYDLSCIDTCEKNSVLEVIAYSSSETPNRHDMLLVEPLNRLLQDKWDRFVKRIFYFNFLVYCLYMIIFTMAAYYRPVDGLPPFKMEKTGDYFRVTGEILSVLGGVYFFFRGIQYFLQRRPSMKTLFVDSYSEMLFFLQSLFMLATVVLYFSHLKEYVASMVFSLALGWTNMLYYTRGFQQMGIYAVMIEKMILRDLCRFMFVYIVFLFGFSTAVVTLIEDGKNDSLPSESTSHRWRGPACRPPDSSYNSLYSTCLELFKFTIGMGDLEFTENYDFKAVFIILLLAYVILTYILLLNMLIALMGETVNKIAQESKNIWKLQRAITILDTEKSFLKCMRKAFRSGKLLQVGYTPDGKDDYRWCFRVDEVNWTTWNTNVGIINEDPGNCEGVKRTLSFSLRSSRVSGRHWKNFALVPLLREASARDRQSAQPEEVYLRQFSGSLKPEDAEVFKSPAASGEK
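TRPV1-expressing cells were cultured overnight at 35.5C and loaded with Fluo-8 calcium dye for 40 to 90 min at room temperature. After a 10 s baseline, compound was added and calcium influx was read kinetically for 3 min (ex 480/em 520 nm).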
CtBP-E1A blk: inhibitors of CtBP/E1A interaction; AlphaScreen GST-E1A/His-CtBP binding, 1536-well; stronger effect = lower value; control for the full effect not named in the record; 340,000 tested, 0.49% active; activity change, % (concentration not given with the values); AID 651724; in the data active means activity change below about -65%; inconclusive means about -30% to -65%; inactive means above about -30%; note: % is set by controls: 0 for no effect and ±100 for the full control effect
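In 5 uL wells, 23 nL compound meets equimolar GST-E1A and His-CtBP (5X stock 125 nM each) for 2 h, 37 °C. Beads (5X, 50 ug/mL) then 1 h, 37 °C, dark.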
gsp ag: activates gsp, the McCune-Albright syndrome mutation; gsp mutant cells, cAMP HTRF, 30 min; control for the full effect not named in the record; Potency, µM (highest dose often 76.9 µM), inactives show top-dose activation (cAMP increase), usual class: activators; 340,000 tested, 0.13% active; AID 624287; active = well fitted activation curve with a large enough effect; inconclusive = small, poorly fitted or top-dose-only effect, or another doubt; inactive = no such curve, though single readings can be large or run the other way; cell line not stated here;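 note: phosphodiesterase inhibitor Ro 20-1724 added with compounds to block cAMP breakdown; potency is the fitted concentration of half-maximal effect; nearly all actives have a fitted effect of over 60% in size; about a fifth of the inactives were tested at one dose only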
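Cells stably selected in G418 were plated at 2000/well, grown 16-24 hr, then given compounds in DMSO with the PDE inhibitor […] (300 uM solution added) for 30 min at 37C; cAMP was read by HTRF.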
Active calls of the source: *; [ ] = another dose, or the depositor's remark. Compounds were not picked by outcome, and some 5.3% of all compounds hit somewhere here.

`COc1cc(CCC(=O)OCC(=O)Nc2ccccc2C(C)C)cc(OC)c1OC` gave Sfp inh 7.6%, ClpP mod -27.3%, gsp antagonist -2.3%, Menin MLL FP FL 0.0, TRPV1 PAM 5.0, CtBP-E1A blk 10.0 and gsp ag 19.3%.
For CN(c1ccccc1)c1nc(N)c(C#N)c(CC#N)c1C#N the results were Sfp inh 7.4%, ClpP mod -3.4%, gsp antagonist -4.3%, Menin MLL FP FL 5.3, TRPV1 PAM -4.5, CtBP-E1A blk -2.7 and gsp ag -0.1%[15.4 µM].
`NC(=O)[C@@H]1CC2(CC(c3cccc(NC(=O)COc4ccc(Cl)cc4)c3)=NO2)CN1C(=O)c1ccccc1` (stereo not given in full) gave Sfp inh 3.3%, ClpP mod -0.7%, gsp antagonist -14.9%, Menin MLL FP FL 0.4, TRPV1 PAM 24.6 and CtBP-E1A blk -0.5.
`Cc1cc(C)c2nc(C)cc(N/N=C/c3ccc(O)cc3)c2c1` gave Sfp inh inconclusive, gsp antagonist -4.1%, Menin MLL FP FL inconclusive, TRPV1 PAM 3.4, CtBP-E1A blk -86.0* and gsp ag 12.3%.
For O=C(Cn1c(C(F)(F)F)nc2ccccc21)Nc1ccccc1C(=O)O the results were Sfp inh 25.2%, gsp antagonist -11.0%, Menin MLL FP FL 2.4, TRPV1 PAM 2.1, CtBP-E1A blk 0.0 and gsp ag -2.0%[15.4 µM].
FC(F)Oc1ccccc1C1CC(c2ccc(Br)s2)Nc2ncnn21 (stereo not given) was read as Sfp inh -4.0%, ClpP mod 0.6%, gsp antagonist 3.5%, Menin MLL FP FL 6.2, TRPV1 PAM 0.8, CtBP-E1A blk -0.3 and gsp ag -0.4%.
Screening O=C(COC(=O)c1c(F)cccc1F)c1ccc[nH]1 returned Sfp inh 20.6%, gsp antagonist 9.3%, Menin MLL FP FL 3.8, TRPV1 PAM -8.0, CtBP-E1A blk -0.7 and gsp ag -10.8%[15.4 µM].
For O=C(NCc1ccco1)c1cccnc1-c1nc2ccccc2s1 the results were Sfp inh 22.4µM*, ClpP mod inconclusive, gsp antagonist -4.7%, Menin MLL FP FL -0.6, TRPV1 PAM -7.3, CtBP-E1A blk 4.1 and gsp ag -7.7%.
`CC(C)(C)c1ccc(C(=O)NN2CCOCC2)cc1` gave Sfp inh 14.3%, ClpP mod 1.8%, gsp antagonist 11.5%, TRPV1 PAM -0.2, CtBP-E1A blk 2.5 and gsp ag -2.2%.
For Cc1cccc(NC(=O)CSc2nnc(-c3ccccc3)n2N)c1C the results were Sfp inh 2.0%, ClpP mod 2.1%, gsp antagonist 5.1%, Menin MLL FP FL 0.4, TRPV1 PAM 11.5, CtBP-E1A blk 4.1 and gsp ag -2.5%.
`CCc1ccc(CCC(=O)Nc2ncc(Cc3ccccc3Cl)s2)o1` gave Sfp inh inconclusive, ClpP mod 1.9%, gsp antagonist -5.2%, Menin MLL FP FL 2.0, TRPV1 PAM 5.0, CtBP-E1A blk 12.2 and gsp ag inconclusive.
For COc1ccc(CNS(=O)(=O)c2ccc3c(c2)NC(=O)C(C)S3)cc1 (stereo not given) the results were Sfp inh 3.3%, ClpP mod 0.0%, gsp antagonist -0.7%, TRPV1 PAM 8.1 and gsp ag -16.9%.
Screening O=C(Cn1nc2ccccc2n1)N/N=C/c1cc(Cl)cc([N+](=O)[O-])c1O returned Sfp inh 24.7%, gsp antagonist -11.5%, Menin MLL FP FL 11.4, TRPV1 PAM inconclusive, CtBP-E1A blk inconclusive and gsp ag -35.1%[inhibitor].
`Cc1ccc(N=C2SCCCN2C(=O)c2ccco2)cc1Cl` gave Sfp inh 6.3%, ClpP mod -1.9%, gsp antagonist 3.2%, Menin MLL FP FL 1.4, TRPV1 PAM -4.5, CtBP-E1A blk -0.2 and gsp ag 23.0%.
Screening O=C(Nc1ccc(NC(=O)c2ccco2)nc1)c1ccco1 returned Sfp inh 17.7%, gsp antagonist -17.1%, Menin MLL FP FL 2.0, TRPV1 PAM 16.4, CtBP-E1A blk -1.6 and gsp ag 9.5%[15.4 µM].
Screening COC(=O)c1ccccc1NC(=O)c1ccc(NC(=O)C2CCCO2)cc1 (stereo not given) returned Sfp inh -3.5%, ClpP mod -22.0%, gsp antagonist -13.8%, TRPV1 PAM -2.3, CtBP-E1A blk -12.3 and gsp ag 5.2%.
`C[C@@H]1CN(Cc2nc(Cc3ccccc3F)no2)C[C@H](C)O1` gave Sfp inh 4.9%, gsp antagonist 10.6%, Menin MLL FP FL 1.4, TRPV1 PAM -15.8, CtBP-E1A blk 8.0 and gsp ag -0.7%[15.4 µM].
`CCOC(=O)C1CCN(S(=O)(=O)c2c(C)[nH]c(C)c2C(=O)N2CCCCC2)CC1` gave Sfp inh 17.5%, gsp antagonist 11.1%, Menin MLL FP FL -0.4, TRPV1 PAM inconclusive, CtBP-E1A blk 5.8 and gsp ag 5.3%.
Screening Cc1cc(-c2n[nH]c(=S)n2/N=C/C(Cl)=C/c2ccccc2)n[nH]1 returned Sfp inh 50.1µM*, ClpP mod inconclusive, gsp antagonist -18.8%, Menin MLL FP FL 0.0, TRPV1 PAM -5.8, CtBP-E1A blk 6.2 and gsp ag -11.9%.
`CCOC(=O)/C(C#N)=C/c1cccc(C)c1` gave Sfp inh 8.7%, ClpP mod -0.7%, gsp antagonist -0.1%, Menin MLL FP FL -0.1, TRPV1 PAM -2.5 and gsp ag -28.2%.
O=[N+]([O-])c1ccccc1S(=O)(=O)Nc1cccnc1 was read as Sfp inh 19.7%, ClpP mod 3.6%, gsp antagonist 9.5%, Menin MLL FP FL -4.1, TRPV1 PAM inconclusive, CtBP-E1A blk 0.8 and gsp ag 3.9%[15.4 µM].
CC(C)(C)OC(=O)NCc1nc(N)n[nH]1 was read as Sfp inh 14.8%, ClpP mod -9.4%, gsp antagonist 6.1%, Menin MLL FP FL 7.3, TRPV1 PAM 5.6, CtBP-E1A blk 6.5 and gsp ag -7.5%.
`Cc1cc(C)cc(N(CCC#N)C(=O)CSc2nc3nc(C)cc(C)n3n2)c1` gave Sfp inh 10.7%, ClpP mod -5.2%, gsp antagonist 1.9%, Menin MLL FP FL -2.2, TRPV1 PAM 21.5, CtBP-E1A blk -5.4 and gsp ag -6.2%.
COc1ccc2oc(C(=O)N(C)Cc3ccc4c(c3)OCCO4)c(C)c2c1 was read as ClpP mod -12.7%, gsp antagonist 19.1%, TRPV1 PAM 3.3, CtBP-E1A blk -0.7 and gsp ag -36.3%[inhibitor].
For Cc1cc(C(=O)CN2C(=O)c3ccccc3C2=O)c(C)n1Cc1cccs1 the results were Sfp inh -2.1%, ClpP mod -2.5%, gsp antagonist 7.8%, Menin MLL FP FL 0.5, TRPV1 PAM -8.4, CtBP-E1A blk -11.4 and gsp ag 30.5%.
For COc1cccc(NC(=O)c2cc(-c3ccccn3)nc3ccccc23)c1 the results were ClpP mod 12.4%, gsp antagonist -30.1%, TRPV1 PAM -15.4, CtBP-E1A blk 5.2 and gsp ag -1.8%.
Screening CC(C)C(NC(=O)OCc1ccccc1)C(=O)OCC(=O)N1CCCCC1 (stereo not given) returned Sfp inh 10.6%, ClpP mod -7.5%, gsp antagonist 7.6%, Menin MLL FP FL -0.1, TRPV1 PAM -11.5, CtBP-E1A blk 3.5 and gsp ag 16.1%.
`N#Cc1ccc(CN2C(=O)NC3(CCCCCC3)C2=O)cc1` gave Sfp inh 8.4%, gsp antagonist 0.6%, Menin MLL FP FL 0.8, TRPV1 PAM -6.5, CtBP-E1A blk 0.0 and gsp ag 5.1%[15.4 µM].
Screening COc1cccc(C(=O)Nc2cc3c(cc2N2CCCC2)n(C)c(=O)n3C)c1 returned Sfp inh -5.3%, ClpP mod 1.7%, gsp antagonist -11.8%, Menin MLL FP FL 4.6, TRPV1 PAM 4.6, CtBP-E1A blk -4.3 and gsp ag inconclusive.
`COc1cc(/C=N/NC(N)=S)cc(Br)c1OCc1ccccc1F` gave Sfp inh -12.8%, ClpP mod inconclusive, gsp antagonist -2.2%, Menin MLL FP FL 10.8, TRPV1 PAM 5.4, CtBP-E1A blk 0.0 and gsp ag inconclusive.
`CCOC(=O)C1=C(COC(=O)CCOc2cccc(C)c2)NC(=O)NC1C` (stereo not given) gave ClpP mod -1.0%, gsp antagonist 4.0%, TRPV1 PAM -3.0, CtBP-E1A blk -10.0 and gsp ag -7.0%.
O=C(NCc1ccncc1)Nc1cccc(Cl)c1 was read as Sfp inh -4.8%, ClpP mod -3.0%, gsp antagonist 6.2%, Menin MLL FP FL 6.5, TRPV1 PAM -13.1, CtBP-E1A blk -1.7 and gsp ag 6.2%.
For COc1nc(N(C)C)nc(N(C)c2cc(Cl)cc(Cl)c2)n1 the results were Sfp inh 18.3%, ClpP mod -10.9%, gsp antagonist -4.4%, Menin MLL FP FL 0.1, TRPV1 PAM 16.6, CtBP-E1A blk -9.8 and gsp ag -11.4%[15.4 µM].
For COc1cc(C(=O)Nc2cccc(-c3nc4ncccc4o3)c2C)cc(OC)c1OC the results were Sfp inh 5.5%, ClpP mod inconclusive, gsp antagonist 3.3%, Menin MLL FP FL -1.2, TRPV1 PAM -0.8, CtBP-E1A blk -0.6 and gsp ag 5.1%.
Screening CCOC(=O)c1cc(-c2nnc(-c3ccc(Cl)cc3)o2)c(C)nc1C returned Sfp inh 9.6%, ClpP mod -0.4%, gsp antagonist 12.4%, Menin MLL FP FL 2.3, CtBP-E1A blk -6.0 and gsp ag -9.0%.
For O=C1OC[C@H]2CCCC[C@@H](CO)ON12 the results were ClpP mod 2.0%, gsp antagonist -1.2% and CtBP-E1A blk -0.2.
Cc1cccc(C)c1OCCCCn1cnc2ccccc2c1=O was read as Sfp inh -2.5%, ClpP mod -0.5%, gsp antagonist 0.0%, Menin MLL FP FL 5.2, CtBP-E1A blk 10.9 and gsp ag -3.1%.
Screening COc1ccc(-c2cc(C)no2)cc1S(=O)(=O)N1CCCN(Cc2ccc(F)cc2)C1 returned Sfp inh 3.0%, ClpP mod 0.2%, gsp antagonist -16.9%, TRPV1 PAM 8.5, CtBP-E1A blk -9.1 and gsp ag inconclusive.

Compound activity: PubChem, National Center for Advancing Translational Sciences (NCATS)
